MLL AF4-AF9 inh: inhibitors of AF4 peptide binding to AF9, primary screen, biochemical, AlphaScreen, biotin-AF4 peptide, FLAG-AF9, single point; inhibition, % at 10 µM; 350,000 compounds, 0.47% hits;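 active = every replicate reaching a set inhibition limit, whatever the replicate mean, cut at about 25% in these data; inconclusive = mean inhibition reaches that limit but some replicates miss it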;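 also: 0% = plate neutral control median and 100% = total signal loss; the record names both 10 and 1 µM as test concentration; the first replicate is given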
ALR inh: inhibitors of human ALR sulfhydryl oxidase, primary screen, biochemical, H2O2 detection, HRP-luminol luminescence, single point | FAD-linked sulfhydryl oxidase ALR (Homo sapiens), P55789 | purified ALR, DTT oxidation | inhibition, % (test concentration not listed) | 290,000 compounds, 3.8% hits | AID 485317, 2010;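 active = mean and each replicate at 75% or more; inconclusive = only one of the two met; inactive = neither met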;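 also: stock transfer was 7.5 nL into about 7.5 µL; 0% = neutral wells and 100% = wells with inactivated enzyme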
Target sequence (P55789 whole entry, looked up): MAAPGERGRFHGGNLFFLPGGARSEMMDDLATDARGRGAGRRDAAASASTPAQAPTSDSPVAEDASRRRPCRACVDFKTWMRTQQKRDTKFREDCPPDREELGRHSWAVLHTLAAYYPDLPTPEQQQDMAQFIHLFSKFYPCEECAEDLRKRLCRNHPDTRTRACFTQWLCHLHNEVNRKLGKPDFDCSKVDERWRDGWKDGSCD
FGF22 binding: binders of human FGF22 protein, primary screen, FGF22 synaptogenesis inhibitor project, biophysical, thermal shift, single point; calls only at 9.99 µM; 340,000 compounds, 1.5% hits; recombinant FGF22 thermal shift, SYPRO orange fluorescence; percent of sucrose octasulfate shift, DMSO zero; Fibroblast growth factor 22 (Homo sapiens), Q9HCT0;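 active = melting point raised past a set limit in the mean and every replicate; inconclusive = no clear call; three in four hits are not shown here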
Target sequence (Q9HCT0 whole entry, looked up): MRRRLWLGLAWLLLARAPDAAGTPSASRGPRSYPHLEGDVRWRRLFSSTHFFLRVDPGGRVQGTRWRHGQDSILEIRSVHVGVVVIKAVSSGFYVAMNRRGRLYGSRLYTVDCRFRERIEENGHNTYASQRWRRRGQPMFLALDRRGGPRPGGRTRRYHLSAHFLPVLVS
rRNA inh HTS: reduced GFP signal of wild-type E. coli, primary screen, bacterial rRNA inhibitor project, GFP/RFP fluorescence, OD600, single point; E. coli WT GFP vs humanized-ribosome RFP mutants, 24 h; hits give low values; DMSO median 0, no signal -100; GFP signal change (wild-type ribosome), % (no concentration beside the values); 350,000 compounds, 1.6% hits; AID 720706, 2013;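 active = significant combined selectivity score with lowered wild-type GFP, culture density cut under 30%, mutant RFP and density less affected; inactive = any of these conditions unmet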; also: one replicate is shown; some compounds called inactive have numbers as strong as hits
HNF4A DNA FP: change in binding of human HNF4A to DNA, primary screen, biochemical, fluorescence polarization, FITC-DNA | Hepatocyte nuclear factor 4-alpha (Homo sapiens), P41235 | 1 h | activity change, % at 10 µM | 360,000 compounds, 0.3% hits; in the data active = activity change above about 30%, passing the limit was not always enough;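 also: controls were the assay level and a saturating level of protein; the project sought stronger binding though the title names inhibitors; some compounds called inactive have numbers as strong as hits; positive values seem to mean higher polarization but the record does not say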
Target sequence (P41235 whole entry, looked up): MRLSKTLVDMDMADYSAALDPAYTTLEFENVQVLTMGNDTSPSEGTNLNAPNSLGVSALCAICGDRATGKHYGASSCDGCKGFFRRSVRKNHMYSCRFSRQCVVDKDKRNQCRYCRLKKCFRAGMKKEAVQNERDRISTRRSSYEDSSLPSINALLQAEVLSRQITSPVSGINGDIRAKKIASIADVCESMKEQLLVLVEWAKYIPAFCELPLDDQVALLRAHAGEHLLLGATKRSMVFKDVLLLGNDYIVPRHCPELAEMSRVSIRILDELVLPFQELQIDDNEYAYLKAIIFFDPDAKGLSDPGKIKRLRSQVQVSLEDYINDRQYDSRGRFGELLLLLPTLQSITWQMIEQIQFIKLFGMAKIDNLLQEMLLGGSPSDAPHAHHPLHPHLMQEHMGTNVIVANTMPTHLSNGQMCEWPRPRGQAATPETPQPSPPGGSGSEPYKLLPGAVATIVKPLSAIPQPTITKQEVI
E coli growth: E. coli growth inhibition, primary screen, OD600. Escherichia coli growth, 23 h; hits give low values. 330,000 compounds, 0.21% hits. OD600 absorbance (concentration not given with the values);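 active = OD600 absorbance below the run mean of sample wells minus 3.6 SD, in any replicate, cut at about 0.56 in these data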;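 also: stock transfer was 300 nL into about 60 µL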
Vif A3G: inhibitors of Vif binding to APOBEC3G peptide, primary screen, biochemical, TR-FRET, GST-Vif 1-94, biotin-A3G peptide, dose response retest (AID 1117319); Virion infectivity factor (Human immunodeficiency virus type 1 group M subtype B (isolate …; 260,000 compounds, 0.57% hits; one-dose inhibition, %; IC50 in µM for titrated hits; TR-FRET GST-Vif / biotin-A3G peptide binding; higher % means a stronger effect; test concentration not given here; strong numbers were not always called active;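 active = above the screen mean plus three standard deviations and confirmed in dose response; inconclusive = results disagree or hit not tested in dose response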;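 also: Vif residues 1-94 fused to GST binding biotinylated APOBEC3G peptide 110-148; 0% = full assay without inhibitor and 100% = GST in place of GST-Vif; retest series ran down from 100 µM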
rRNA inh HTS OD600: recorded beside rRNA inh HTS, whose call it bears; OD600 change, %; measured here: OD600 growth;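 optical density of the mix in the first replicate; 0 = DMSO median and -100 = no signal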
rRNA inh HTS RFP: also measured in rRNA inh HTS; calls as there; RFP signal change, %; measured here: RFP humanized mutant strains;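 first replicate; 0 = DMSO median and -100 = no signal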
Numbers without * were called inactive; i = inactive; ? = inconclusive; / = not tested or not shown; & = joins results of further samples.

SMILES	MLL AF4-AF9 inh	ALR inh	FGF22 binding	rRNA inh HTS	rRNA inh HTS OD600	rRNA inh HTS RFP	HNF4A DNA FP	E coli growth	Vif A3G
Cc1cc(C(=O)NC(=S)Nc2ccccc2N2CCOCC2)ccc1[N+](=O)[O-]	/	1.2	/	/	/	/	1.5	0.715	?
Cc1ccccc1NC(=O)c1cccc(N2C(=O)C3CCCCC3C2=O)c1 (centres undefined)	4.9	-5.1	i	-0.1	-0.1	-0.4	-3.4	0.715	/
CCCCn1c(SCC(=O)OCC)nc2c(sc(=S)n2-c2ccccc2OC)c1=O	10.4	-13.0	i	-1.6	-9.0	5.9	1.2	0.663	-9.7%
CC(C)CC(COCc1ccc(Cl)cc1)N1CCN(C(=O)c2ccc(C(F)(F)F)cc2)CCC1=O (centres undefined)	-4.1	/	i	-11.6	-22.8	21.4	11.7	0.692	7.4%
COC(=O)C(CCSC)NC(=O)c1cn(-c2ccc(OC)cc2)c(=O)c2ccccc12 (centres undefined)	-0.5	-6.7	i	-2.3	-11.9	-1.2	3.1	0.619	-0.6%
C[C@H](CO)N1C[C@H](C)[C@H](CN(C)S(=O)(=O)c2cccs2)Oc2ccc(NC(=O)CCCCCC(=O)Nc3ccccc3N)cc2C1=O	-1.9	/	i	0.7	-1.2	-0.3	/	/	/
COc1ccc2c(CCNC(N)=S)c[nH]c2c1	-19.5	38.6	i	-3.4	0.0	-7.3	-2.9	0.696	/
CCC(C)NC(=O)C1c2ccccc2C(=O)N1Cc1ccc(F)cc1 (centres undefined)	0.8	-7.5	i	8.9	-1.2	1.8	1.5	0.682	-5.5%
CCn1c(N2CCN(C(c3ccccc3)c3ccccc3)CC2)nc2c1c(=O)[nH]c(=O)n2C	0.6	/	i	6.8	7.2	-0.5	3.5	0.675	/
Cc1cccc(Cc2cnc(NC(=O)c3ccc(C)o3)s2)c1	/	0.6	/	/	/	/	-0.3	0.737	?
C[C@H](CO)N1C[C@H](C)[C@@H](CN(C)Cc2ccccc2)Oc2c(NS(=O)(=O)c3ccccc3)cccc2C1=O	-0.2&-0.4	-4.3	i	2.0&-1.2	5.0&0.4	-0.4&3.8	-0.6	0.776	/
CCOC(=O)Cc1csc(NC(=O)c2sc3nc4cc(C)ccc4cc3c2N)n1	-16.4	5.1	i	3.0	2.1	1.6	14.2	0.642	/
CC(=O)N1CCc2cc(S(=O)(=O)CCC(=O)Nc3c(C)n(C)n(-c4ccccc4)c3=O)ccc21	/	-13.5	/	/	/	/	0.3	0.691	-0.5%
COc1ccc(NC(=O)Nc2cccc3c2O[C@@H](CN(C)S(=O)(=O)c2cn(C)cn2)[C@H](C)CN([C@@H](C)CO)C3=O)cc1	-8.8	/	i	-1.3	-1.5	-0.4	/	/	/
Cc1cccnc1NC(=O)Nc1cccc(Cl)c1	-0.3	-1.0	i	20.2	6.6	0.8	-0.6	0.62	/
COc1cccc(CNc2ccc(N3CCCCC3)cc2)c1OC	/	96.5*	/	/	/	/	0.6	0.719	?
O=[N+]([O-])c1cccc(S(=O)(=O)N2CCCC2)c1	/	-11.9	/	/	/	/	-2.3	0.692	-6.3%
Nc1nonc1-n1nnc(C(=O)N/N=C/c2ccccn2)c1CNc1ccccc1	-1.3	7.5	i	-7.7	7.0	3.0	-3.0	/	/
COC(=O)c1ccc(COc2cccc3c2CCN(Cc2ccccc2)C3=O)o1	/	-10.4	/	/	/	/	1.1	0.66	/
OCCNCc1cc(Br)ccc1OCc1ccccc1Cl	/	-13.7	/	/	/	/	-0.8	0.621	11.7%
O=C(O)CNC(=O)C(Cc1ccccc1)NC(=O)OCc1ccccc1 (centres undefined)	1.4	-1.4	i	15.5	3.4	-2.3	3.4	0.734	1.2%
COc1cc(CN2CCCC(C(=O)c3ccccc3SC)C2)cc(OC)c1 (centres undefined)	/	-3.1	/	/	/	/	1.1	0.693	?
Cc1cccc(C)c1-n1cccc1/C=C1\SC(=S)N(c2cccc(C(=O)O)c2)C1=O	6.4	5.2	/	-7.2	-17.4	6.5	-13.1	0.64	25.5%
CSc1ccccc1NC(=O)COc1ccc(Cl)cc1C	-6.2	-14.2	i	/	/	/	0.7	0.67	-4.3%
O=Nc1ccc(NOC(=O)c2ccccc2)cc1	2.8	40.1	i	20.8	18.9	8.6	3.7	0.671	6.0%
(list continues)
SMILES	MLL AF4-AF9 inh	ALR inh	FGF22 binding	rRNA inh HTS	rRNA inh HTS OD600	rRNA inh HTS RFP	HNF4A DNA FP	E coli growth	Vif A3G
O=S(=O)(c1cccc(C(F)(F)F)c1)N1CCC(c2cc(-c3cccc4ccccc34)n[nH]2)CC1	/	-3.4	/	/	/	/	0.8	0.699	-3.2%
COc1ccc(-c2cn(CCO)nc2-c2ccc(OC)cc2)cc1	2.7	/	i	-6.3	-9.4	3.5	2.0	0.671	/
COc1ccc(NC(=O)Nc2ccc3c(c2)C(=O)N([C@H](C)CO)C[C@H](C)[C@H](CN(C)C(=O)NC(C)C)OCCCC[C@H](C)O3)cc1	-0.1	/	i	1.6	6.9	0.0	/	/	/
Cc1cccc(CS(=O)(=O)c2cn(CC(=O)N3CCOCC3)c3ccccc23)c1	-1.8	1.5	i	11.0	11.8	0.2	3.7	0.682	1.1%
COc1ccc(OC)c(C2=NOC(C(=O)N3CCN(c4ccccc4)CC3)C2)c1 (centres undefined)	2.3	11.2	i	3.4	3.8	-2.6	0.3	0.722	29.2%
Oc1cc(O)cc(/C=C/c2ccc(O)c(O)c2)c1	16.2	98.7*	i	/	/	/	0.1	/	/
COc1ccccc1OCCNC(=O)c1cccc(S(=O)(=O)N2CC(C)OC(C)C2)c1 (centres undefined)	-6.1	2.7	i	0.5	5.1	3.6	-11.9	0.706	/
CCCNC(=O)c1ccc(N2CCC3(CC2)CC(c2ccccc2)=NO3)c(NC(=O)c2ccco2)c1	4.2	/	i	-3.7	-6.9	6.2	-5.1	/	/
Cc1ccc2cc(CCNC(=O)c3ccc4c(c3)OCO4)c(=O)[nH]c2c1C	9.9	-11.1	i	4.1	8.2	-1.8	33.9*	0.727	2.1%
COc1ccc(OC)c(NC(=O)CCNS(=O)(=O)c2ccc3[nH]c(=O)oc3c2)c1	-0.3	-25.8	i	4.4	6.9	-4.0	0.9	0.713	?
OCCN1CCN(CC(O)C(F)(F)F)CC1 (centres undefined)	-1.2	-13.5	i	9.1	5.9	-1.1	-2.2	0.658	-2.3%
CCNc1nc(NCC)n2c(SCC(=O)Nc3ccccc3)nnc2n1	-2.0	-8.0	i	5.0	4.2	0.8	-2.7	0.708	2.8%
CC(C)NC(=O)N[C@@H]1C=C[C@H](CC(=O)N2CCCCC2)O[C@@H]1CO	-2.2	/	i	4.6	-0.4	-0.9	/	/	/
O=S(=O)(Nc1ccc(-c2ccc(NS(=O)(=O)c3ccccc3)cc2)cc1)c1ccccc1	6.1	/	i	-6.6	4.1	3.0	-2.5	0.658	0.3%
Cc1ccc(-c2cnc3c(c2)C(=O)N([C@@H](C)CO)C[C@@H](C)[C@H](CN(C)C(=O)c2cccc(F)c2)O3)cc1	-1.8	/	i	-0.9	-6.9	0.5	/	/	/
COc1ccc2c(C(=O)CN(C)C3CCCCC3)c[nH]c2c1	/	-22.2	/	/	/	/	7.0	0.68	21.4%
O=C(CNC(=O)c1cc(Cl)cc([N+](=O)[O-])c1)NC1CC1	-1.1	-8.9	i	30.5	20.7	1.5	-4.0	0.704	/
CCOc1ccccc1C(=O)NCC(=O)NCC(C)(C)N1CCOCC1	-0.3	-9.1	i	/	/	/	1.0	0.608	-2.5%
O=C(NN=C1CCCC1)c1ccc(O)cc1O	-2.6	73.7	i	2.1	2.2	-2.8	5.5	0.694	-7.2%
CCOCCCn1c(=S)[nH]c2cc(C(=O)NC3CCCC(C)C3C)ccc2c1=O (centres undefined)	1.7	-1.2	i	6.0	4.5	5.0	-1.9	0.643	/
COc1ccc(C2c3ccsc3CCN2C(C)=O)cc1 (centres undefined)	6.0	/	i	-2.2	-0.1	3.2	3.6	0.68	/
CSc1nnnn1-c1ccc(Cl)cc1	-1.2	-7.2	i	-31.5*	-7.8*	5.5*	0.8	0.688	2.0%
O=C1N=C(N2CCOCC2)S/C1=C\c1cccs1	1.7	3.3	i	0.4	4.2	-1.4	4.2	/	-6.4%
CC1(C)CC(NC(=O)c2ccc(Cl)c(Cl)c2)CC(C)(C)N1	-1.9	-2.7	i	2.8	5.7	0.6	2.5	0.661	/
CO/N=C/c1ccc(N2CCN(C(=O)c3ccc(F)cc3)CC2)c([N+](=O)[O-])c1	/	-0.5	/	/	/	/	-3.7	/	1.0%
Further results.
SMILES	MLL AF4-AF9 inh	ALR inh	FGF22 binding	rRNA inh HTS	rRNA inh HTS OD600	rRNA inh HTS RFP	HNF4A DNA FP	E coli growth	Vif A3G
Cc1ccc(C)c(NC(=S)NC23CN4CN(CN(C4)C2)C3)c1	5.3	0.3	i	16.0	13.8	3.5	-4.5	0.691	-9.1%
O=C(N[C@@H](Cc1ccccc1)C(=O)OCc1ccccc1)c1nc[nH]c1C(=O)N1CCc2ccccc2C1	5.9	43.0	i	3.5	4.3	7.1	-2.2	/	-0.8%
CCOc1ccc(OCC)c(NC(=O)CSc2nnc(C3CC3)n2CC)c1	-13.9	-22.6	i	1.0	0.0	2.9	1.9	0.662	/
NC(=O)c1ccccc1-c1nc(-c2ccccc2)no1	/	1.3	/	/	/	/	2.1	0.672	9.6%
Cc1cccc(N2CCN(S(=O)(=O)c3c(C)nc4scc(C)n4c3=O)CC2)c1C	1.2	-2.7	/	-7.0	-19.1	1.6	3.2	0.661	-11.7%
O=C([C@H]1[C@H](CO)[C@H]2Cn3c(ccc(-c4ccccc4)c3=O)[C@@H]1N2)N1CCCCC1	0.4	/	i	3.7	8.1	-0.9	/	/	/
CCN1CCN(CCCNC(=O)CN2C(=O)c3cccnc3Oc3ccc(Cl)cc32)CC1	1.0	-8.9	i	10.8	6.8	3.4	-1.4	0.639	-3.5%
Cc1cccc(S(=O)(=O)N2C[C@H](O)COC[C@@H]3O[C@H](CC(=O)NCc4ccncn4)CC[C@H]32)c1	-1.0	/	i	4.0	3.7	-2.4	/	/	/
COc1ccc(OC(=O)c2ccncc2)cc1	/	0.9	/	/	/	/	1.1	0.702	-6.2%
Cc1ccc(C(=O)N2CCCC(Nc3cccc(F)c3)C2)cc1N1CCNC1=O (centres undefined)	0.1	36.0	i	-0.6	0.1	-0.2	3.3	0.716	-4.0%
CC(C)C(NS(=O)(=O)c1cccc2nsnc12)C(=O)NC1CCCCC1C (centres undefined)	/	-3.8	/	/	/	/	1.4	0.66	4.6%
C[C@@H]1CN([C@@H](C)CO)C(=O)c2cccc(NC(=O)Nc3ccc(C(F)(F)F)cc3)c2O[C@@H]1CN(C)C(=O)Nc1ccc(C(F)(F)F)cc1	0.0	/	i	-2.4	-6.9	-5.0	/	/	/
CCN(CC)C(=O)c1cccc(NC(=O)C2=COCCO2)c1	-26.8	-5.8	i	15.3	16.3	-0.4	1.8	0.71	-10.5%
O=C1CCCC2=C1C(c1ccc3c(c1)OCO3)c1c([nH]n(-c3ccccc3)c1=O)N2 (centres undefined)	/	56.3	/	/	/	/	5.3	0.697	12.8%

Assay outcomes (PubChem)

Not all compounds are listed; the hit share may differ from the screen's.
